# Source: PubChem
# VDR inh = vitamin D3 receptor (human) inhibition | 400,000 tested, 0.93% active | AID 504847 | Potency, µM, without a hit: max response, negative = inhibition, hits mostly inhibitors | VDR-SRC2-3 peptide fluorescence polarization, 2 h; active means well fitted inhibition curve with a large enough effect; inconclusive means small, poorly fitted or top-dose-only effect, or another doubt; inactive means no such curve, though single readings can be large or run the other way; further: series mostly up to about 120 µM
# Target sequence (P11473 whole entry, looked up): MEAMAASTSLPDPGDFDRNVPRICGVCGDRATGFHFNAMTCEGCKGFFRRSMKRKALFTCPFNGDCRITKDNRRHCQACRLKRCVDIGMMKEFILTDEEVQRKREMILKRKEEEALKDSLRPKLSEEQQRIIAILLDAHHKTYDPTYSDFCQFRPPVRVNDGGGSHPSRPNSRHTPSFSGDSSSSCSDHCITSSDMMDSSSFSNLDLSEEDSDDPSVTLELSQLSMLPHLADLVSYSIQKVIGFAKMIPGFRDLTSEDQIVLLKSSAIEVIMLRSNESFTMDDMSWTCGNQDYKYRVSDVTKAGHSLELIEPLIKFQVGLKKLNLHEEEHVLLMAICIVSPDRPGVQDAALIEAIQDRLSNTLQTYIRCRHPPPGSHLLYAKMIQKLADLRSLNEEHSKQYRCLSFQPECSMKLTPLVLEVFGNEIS
#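 Measured by FP: displacement of SRC2-3 coactivator peptide from VDR by library compounds, following a two-hour ambient incubation.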
# The depositor's hits bear a star; ? = inconclusive. On the % scale 0 is the no-effect control and ±100 the full control effect; potency means the concentration at half of the fitted maximal effect. The list is partial (hit frequency here may not be typical).
> CC(=O)N1N=C(c2ccncc2)OC12CCCCC2
  VDR inh: 17%
> Cc1cc(C)n2nc(C(F)(F)F)c(-c3ccccc3)c2n1
  VDR inh: -7%
> O=C(Nc1ccc(NC(=O)c2ccc(Cl)c(S(=O)(=O)N3CCOCC3)c2)cc1)c1ccccc1
  VDR inh: 1%
> Cc1cc2oc(=O)cc(C)c2c(=O)o1
  VDR inh: -2%
> Cc1cc(NS(=O)(=O)c2ccc(NC(=O)c3ccccc3C)cc2)nc(C)n1
  VDR inh: -22%
> COc1ccc(N2CCN(C(=O)C3CCCN3S(=O)(=O)c3cccc4nsnc34)CC2)cc1 (stereo not drawn)
  VDR inh: -23%
> CCOc1ccc(C(CC(=O)O)n2cnnn2)cc1 (stereo not drawn)
  VDR inh: -4%
> Cc1cc(C)cc(NC(=O)c2nccnc2C(=O)O)c1
  VDR inh: -18%
> O=[N+]([O-])c1ccc(N2CCN(S(=O)(=O)c3ccc4ccccc4c3)CC2)cc1NCC1CCCO1 (stereo not drawn)
  VDR inh: -2%
> Cn1c(C(=O)NCc2ccc(F)cc2)cc2c(=O)n(C)c3ccccc3c21
  VDR inh: 2%
> CCOC(=O)C1=C(C)Nc2ccccc2N=C1NC(=O)c1ccc(Cl)c(S(=O)(=O)N2CCCC2)c1
  VDR inh: -2%
> CCCN(C(=O)c1ccc(N2CCCC2=O)cc1)c1c(N)n(Cc2ccccc2)c(=O)[nH]c1=O
  VDR inh: -10%
> Cc1cc(SCNC(=O)c2ccccc2)nc(C(C)C)n1
  VDR inh: -28%
> Cc1cc(C)c2c(=O)cc(C(=O)Nc3c(C)n(C)n(-c4ccccc4)c3=O)oc2c1
  VDR inh: 14%
> CCN(CC)S(=O)(=O)c1ccc(NC(=O)COC(=O)c2ccc(Br)o2)cc1
  VDR inh: -6%

> COc1cc(CN2CCc3nc(N4CCN(c5ccccn5)CC4)ncc3C2)cc(OC)c1OC
  VDR inh: -1%
> N#Cc1cc2c(nc1SC1CCCCC1O)CCCC2 (stereo not drawn)
  VDR inh: -16%
> c1ccc(-c2nc3nc4ccccc4nc3n2Cc2ccco2)cc1
  VDR inh: -27%
> CCOc1ccc2nc(NC(=O)CSCC(=O)Nc3cc(C)on3)sc2c1
  VDR inh: 5%
> CCN(CC)S(=O)(=O)c1ccc(C(=O)NCc2n[nH]c(=S)n2Cc2ccccc2)cc1
  VDR inh: 0%
> CCOC(=O)c1c(N)sc(C(O)(C(F)(F)F)C(F)(F)F)c1-c1ccc(OC)cc1OC
  VDR inh: -3%
> CSCC[C@H](NC(=O)[C@H]1N2C(=O)c3ccccc3C2SC1(C)C)C(=O)NCc1ccncc1 (stereo partly drawn)
  VDR inh: 2%
> COc1cccc(C(=O)NCCS(=O)(=O)NCc2ccc(Cl)cc2)c1
  VDR inh: -4%
> CCOc1ccc(C(=O)Cc2ccccc2)cc1
  VDR inh: -11%
> COCCNCCCOc1ccc(C)cc1Br
  VDR inh: 16%
> CC1=C(C(=O)Nc2ccc(C)cc2C)C(c2cc(Br)ccc2F)n2ncc(C(=O)Nc3ccc(C)cc3)c2N1 (stereo not drawn)
  VDR inh: 17%
> CCOc1ccc(-n2c(-c3ccc(Br)cc3)cc3c2CC(C)(C)CC3=O)cc1
  VDR inh: 10%
> CCOc1ccc(N(CC(=O)NCCSCc2ccc(Cl)cc2)S(C)(=O)=O)cc1
  VDR inh: -23%
> O=C(c1cccc(C(F)(F)F)c1)C1CCCN(C(=O)CCCN2CCCC2=O)C1 (stereo not drawn)
  VDR inh: 5%
> CCCCNC(=O)c1cc(-c2cccnc2)nc2ccc(S(=O)(=O)NCCCC)cc12
  VDR inh: 5%

> O=C(CC1CCCCC1)N1CCN(c2ccccn2)CC1
  VDR inh: -6%
> CCCN(CCC)C(=O)Nc1ccc(F)cc1F
  VDR inh: 3%
> O=S(=O)(c1ccccc1)c1nc(-c2ccccc2F)oc1NCc1cccnc1
  VDR inh: -4%
> COc1ccc(CCNc2ncnc3c2cnn3-c2ccc(C)cc2)cc1
  VDR inh: 11%
> COc1ccc(-c2cc(-c3nnc(COC(=O)C4CC4C)o3)c3ccccc3n2)cc1OC (stereo not drawn)
  VDR inh: -8%
> CCCS(=O)(=O)c1c(Nc2ccccc2C)sc(C(=O)c2ccccc2)c1N
  VDR inh: 2%
> Cc1cc(/C=N/NC(=O)COc2cccc3cccnc23)c(C)n1-c1ccc(O)cc1
  VDR inh: -10%
> Cc1csc(SCC(=O)Nc2ccc(C)c(F)c2)n1
  VDR inh: 2%
> Cc1ccc(S(=O)(=O)N2CCN(c3nc(CN4CCCC4)nc4sc(C)c(C)c34)CC2)cc1
  VDR inh: -1%
> CCOc1ccc(Nc2oc(/C=C/c3ccc(OC)c(OC)c3)nc2C#N)cc1
  VDR inh: -9%
> O=C(Cn1cnc2ccccc21)OCC(=O)N1CCc2ccccc2C1
  VDR inh: 13%
> Cc1cnc(NC(=O)CSc2nc3ccccc3s2)s1
  VDR inh: 1%
> CCN(CC)CCCNC(=O)C1CCC(CNS(=O)(=O)c2ccc(Cl)cc2)CC1 (stereo not drawn)
  VDR inh: 2%
> CN(C)CCCNC(=O)c1ccc(CN(c2ccccc2)S(C)(=O)=O)cc1
  VDR inh: -5%
> COc1cccc(NC(=O)CN(C)C(=O)c2ccccc2CCc2ccccc2)c1
  VDR inh: 2%

> CN(C)CCOc1nc(-c2ccccc2)nc2c1oc1ccccc12
  VDR inh: -11%
> Cn1c(SCc2ccccc2Cl)nc(=O)c2c1NC(=O)CC2c1cc(F)ccc1F (stereo not drawn)
  VDR inh: 5%
> O=C1CCC(=O)N1c1ccc(CSc2nc3ccccc3[nH]2)cc1
  VDR inh: 6%
> COc1cc(/C=C2/SC(=O)N(CC(=O)N3CCCC3)C2=O)ccc1Oc1ccc([N+](=O)[O-])cn1
  VDR inh: -8%
> Cc1ccc(S(=O)(=O)N2CCCCC2)cc1C(=O)N(C)CC(=O)Nc1cccc(F)c1
  VDR inh: -5%
> FC(F)C(F)(F)C1=CC(c2cccs2)=NCCN1
  VDR inh: 7%
> CC(=O)N1CCc2cc(S(=O)(=O)NC(C(=O)NC3CCCc4ccccc43)C(C)C)ccc21 (stereo not drawn)
  VDR inh: 16%
> Cc1cccc(C)c1OCCNC(=O)CCC(=O)c1ccccc1
  VDR inh: 11%
> CCOC(=O)C1=CN(Cc2ccco2)S(=O)(=O)N(C)C1c1cccc(OC)c1 (stereo not drawn)
  VDR inh: -12%
> COC(=O)c1ccc(-n2nnc(-c3nc(-c4ccccc4Cl)no3)c2C)cc1
  VDR inh: 5%
> Cc1ccccc1NC(=S)NC1CC2CCC(C1)N2Cc1ccco1 (stereo not drawn)
  VDR inh: -1%
> CC(C)(C)c1ccc(S(=O)(=O)N2CCCC2C(=O)NC2=NCCS2)cc1 (stereo not drawn)
  VDR inh: -7%
> CCCC(=O)CN1C(=O)C2(OCCO2)c2ccccc21
  VDR inh: -10%
> CCOC(=O)/C(=C\c1ccccc1)C(=O)c1cc(C(C)=O)c(Nc2ccccc2)s1
  VDR inh: ?
> Cn1nc(C(=O)NC(C)(C)C)c2ccccc21
  VDR inh: -10%

> COc1cccc(C2Nc3ccccc3C(=O)N2Cc2ccccc2)c1 (stereo not drawn)
  VDR inh: -20%
> COc1ccc(CNc2ccccn2)c(O)c1
  VDR inh: 7%
> Cc1nn(-c2ccccc2)c2nc(Cl)c(C(=O)O)cc12
  VDR inh: -4%
> COc1ccccc1C(=O)NCCC(=O)N1CC(=O)Nc2ccccc21
  VDR inh: -9%
> CC(C)CCNC(=S)Nc1ccccc1F
  VDR inh: -22%
> O=C(CSc1nnc(C2CC2)n1Cc1ccccc1)c1cc2ccccc2o1
  VDR inh: ?
> O=C(COc1c(F)c(F)c(C(F)(F)F)c(F)c1F)Nc1ccc(N2CCOCC2)c(Cl)c1
  VDR inh: -10%
> COc1ccc(OC)c(NC(=O)CCC(=O)Oc2ccc(C)cc2)c1
  VDR inh: -9%
> O=C(NCC(c1ccco1)N1CCOCC1)C1CCCCC1 (stereo not drawn)
  VDR inh: 7%
> O=C(Nc1ccc(Br)c2cccnc12)c1ccc(Cn2cc(Cl)cn2)o1
  VDR inh: -10%
> CC(C)c1ccccc1OCCCCN1CCCCC1
  VDR inh: -13%
> N#CCCN(C(=S)NC(=O)c1cccs1)c1ccccc1F
  VDR inh: ?
> O=C(Nc1cccc(NC(=O)c2cccs2)c1)c1ccc(Br)cc1
  VDR inh: -6%
> COc1ccccc1NC(=O)CSc1n[nH]c(-c2ccccn2)n1
  VDR inh: -4%
> CC(=O)C1CCC2C3CC(O)C4=CC(=O)CCC4(C)C3C(=O)CC12C (stereo not drawn)
  VDR inh: -20%

> Cc1cccc(NC(=O)CSCC(=O)N(C)CCOc2ccc(Cl)cc2)c1
  VDR inh: -4%
> CC(=O)c1ccc(NC(=O)CSc2nnc(C3CC3)n2C)cc1
  VDR inh: -11%
> CC(C)(C)n1nc(-c2ccc(F)cc2)c2c(N)ncnc21
  VDR inh: -18%
> COc1ccc2oc(-c3ccccc3[N+](=O)[O-])cc(=O)c2c1
  VDR inh: -23%
> O=C(NCc1ccccc1)C(=O)NCC(c1cccnc1)N1CCN(c2ccccc2)CC1 (stereo not drawn)
  VDR inh: 1%
> CC(NC(=O)CSC(=S)N1CCCC1)c1ccc(S(N)(=O)=O)cc1 (stereo not drawn)
  VDR inh: 2%
> O=C(O)c1ccc(N2N=C(c3ccccc3)CC2c2ccccc2)cc1 (stereo not drawn)
  VDR inh: -22%
> O=C(NCC12CC3CC(CC(C3)C1)C2)c1cc2nc(-c3ccc(Cl)cc3)cc(C(F)(F)F)n2n1
  VDR inh: 2%
> O=C(CSc1ccc(-c2cccs2)nn1)c1cccs1
  VDR inh: 5%
> COC(=O)C1CCN(C(=O)Cc2ccc(C)cc2)CC1
  VDR inh: -3%
> CC(C)N1CCc2c(sc(NC(=O)c3ccc(S(=O)(=O)N4CCc5ccccc54)cc3)c2C(N)=O)C1
  VDR inh: 9%
> COc1ccc(C2=Nc3ccc(C)cc3NC(c3ccc(Cl)cc3)=N2)cc1
  VDR inh: 4%
> CC(c1ccco1)N(C(=O)c1ccc(C#N)cc1)c1ccccn1 (stereo not drawn)
  VDR inh: 9%
> Cn1nnc(NC(=O)c2ccccc2F)n1
  VDR inh: -11%
> C/C(=N\NC(=O)c1cc(-c2ccc(Br)s2)[nH]n1)c1ccncc1
  VDR inh: 7%

# Part of the list above, reformatted:
mol,VDR inh
Cc1cccc(NC(=O)CSCC(=O)N(C)CCOc2ccc(Cl)cc2)c1,-4%
O=C(NCc1ccccc1)C(=O)NCC(c1cccnc1)N1CCN(c2ccccc2)CC1 (stereo not drawn),1%
C/C(=N\NC(=O)c1cc(-c2ccc(Br)s2)[nH]n1)c1ccncc1,7%
Cn1nnc(NC(=O)c2ccccc2F)n1,-11%
CC(C)N1CCc2c(sc(NC(=O)c3ccc(S(=O)(=O)N4CCc5ccccc54)cc3)c2C(N)=O)C1,9%
O=C(CSc1ccc(-c2cccs2)nn1)c1cccs1,5%

# Other structures follow:
> Cc1cc2cc(NC(=O)c3ccco3)ccc2[nH]1
  VDR inh: 2%
> COc1ccc(C(CNC(=O)Cn2[nH]c(=O)c3ccccc3c2=O)N2CCCC2)cc1 (stereo not drawn)
  VDR inh: -2%
> Cc1ccc(C(C)C)c(OCc2ccc(C(=O)N/N=C/c3ccc(O)c(O)c3)cc2)c1
  VDR inh: -6%
> Cc1cc(C(=O)OCC(=O)NCc2ccc3c(c2)OCO3)c2ccccc2n1
  VDR inh: -12%
> O=C(c1ccco1)N1CCN(c2ncnc3c2[nH]c2ccc(Br)cc23)CC1
  VDR inh: 22%
> CC[C@]12c3[nH]c4ccccc4c3CCN1C(=O)C(CC(=O)NC(C)(C)C)C[C@@H]2C(=O)N1CCN(C(=O)C2CC2)CC1 (stereo partly drawn)
  VDR inh: -18%
> CCN(CC)C(=O)Cn1cc(SCC(=O)NC2CCCC2)c2ccccc21
  VDR inh: 4%
> CCS(=O)(=O)n1nc(-c2ccccc2)nc1SCc1ccccc1
  VDR inh: 9%
> COc1cc(C(=O)NNC(=O)c2cccc(Cl)c2)ccc1OCC(=O)N1CCOCC1
  VDR inh: -20%
> CC1(C)Cc2c(sc3nn[nH]c(=O)c23)CO1
  VDR inh: -1%
> CC(C)n1c(N2CCN(C(=O)Nc3ccc(Cl)cc3)CC2)nc2ccccc21
  VDR inh: ?
> CCOc1cc2[nH]c(=S)n(Cc3ccc(C(=O)NCCCN4CCOCC4)cc3)c(=O)c2cc1OCC
  VDR inh: -13%
> Cc1ccc(Cn2nnc3c(=O)[nH]c(C4CCN(S(=O)(=O)Cc5ccccc5)CC4)nc32)cc1
  VDR inh: -18%
> Cc1ccc(CNC(=O)C2CCC(=O)N2Cc2ccc(C)cc2)cc1 (stereo not drawn)
  VDR inh: -5%
> COc1ccc(NC2=Nc3cccc4cccc2c34)cc1OC
  VDR inh: 20%

> CC(C)Oc1ccc(CNC(=O)C2CCN(C(=O)N3CCOc4ccccc43)CC2)cc1
  VDR inh: -11%
> COc1ccc(-c2nc3cnc(OC)nc3n(CCC#N)c2=O)cc1
  VDR inh: -3%
> COc1ccc(N(C(=O)c2cnsn2)C(C(=O)NC2CCCCC2)c2ccncc2)cc1 (stereo not drawn)
  VDR inh: -3%
> COc1ccc(/C=N/NC(=O)CCn2cnc3ccccc32)cc1
  VDR inh: 0%
> CC(C)(C)c1ccc(-n2ncc3c2CCCC3NC(=O)CCN2CCCC2=O)cc1 (stereo not drawn)
  VDR inh: -15%
> Cc1cccc(N2C(=O)CC(Sc3nc(-c4ccccc4)c4cc(Cl)ccc4n3)C2=O)c1 (stereo not drawn)
  VDR inh: -3%
> CC1CCC(NC(=O)c2cc(S(=O)(=O)N(C)C)ccc2N2CCCC2)CC1 (stereo not drawn)
  VDR inh: -13%
> c1ccc(CNc2cnccn2)cc1
  VDR inh: 6%
> COc1cc(Cl)c(CNC[C@H]2O[C@@H](n3cnc(C(N)=O)n3)[C@H](O)[C@@H]2O)c(Cl)c1O
  VDR inh: -22%
> C[C@@H]1O[C@@H](OC2O[C@@H](COc3cc(O)c4c(=O)cc(-c5ccc(O)cc5)oc4c3)[C@@H](O)[C@@H](O)[C@@H]2O)[C@H](O)[C@H](O)[C@H]1O (stereo partly drawn)
  VDR inh: 0%
> COc1ccc([N+](=O)[O-])cc1NC(=O)c1cncc(Br)c1
  VDR inh: -16%
